Screening data from PubChem.
GLA inh pH 4.5 = qHTS Assay for Inhibitors of Human alpha-Galactosidase at pH 4.5; purified enzyme, 4-MU-alpha-Gal fluorescence, pH 4.5; 230,000 tested, under 10 active; AID 1467, 2008; activity change, negative = inhibition, % at 105 µM; Alpha-galactosidase A (Homo sapiens), P06280; inconclusive = small, poorly fitted or top-dose-only inhibition, or a rising curve; inactive = flat fitted curve, though single readings scatter; no compound was filed as active;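 note: 0% = full activity with enzyme and -100% = basal without enzyme; dose as in the result columns while the protocol names 77 µM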
Rango complex inh = qHTS Assay for Inhibitors of Rango (Ran-regulated importin-beta cargo) - Importin beta complex formation; Importin subunit beta-1 (Homo sapiens), Q14974; Potency, µM (highest dose often 92.2 µM), for inactives: top-dose inhibition of complex formation; 340,000 compounds, 0.031% hits; Rango CFP/YFP FRET sensor + importin beta, 45 min; active = rising FRET ratio curve, often small or poorly fitted; inconclusive = mostly compound fluorescence or quenching in the first reads; inactive = flat curves in all reads;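 note: potency is the fitted concentration of half-maximal effect; 0% = DMSO wells and 100% = buffer wells lacking importin beta; nearly all actives have a fitted effect of over 15% in size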
Target sequence (Q14974 whole entry, looked up): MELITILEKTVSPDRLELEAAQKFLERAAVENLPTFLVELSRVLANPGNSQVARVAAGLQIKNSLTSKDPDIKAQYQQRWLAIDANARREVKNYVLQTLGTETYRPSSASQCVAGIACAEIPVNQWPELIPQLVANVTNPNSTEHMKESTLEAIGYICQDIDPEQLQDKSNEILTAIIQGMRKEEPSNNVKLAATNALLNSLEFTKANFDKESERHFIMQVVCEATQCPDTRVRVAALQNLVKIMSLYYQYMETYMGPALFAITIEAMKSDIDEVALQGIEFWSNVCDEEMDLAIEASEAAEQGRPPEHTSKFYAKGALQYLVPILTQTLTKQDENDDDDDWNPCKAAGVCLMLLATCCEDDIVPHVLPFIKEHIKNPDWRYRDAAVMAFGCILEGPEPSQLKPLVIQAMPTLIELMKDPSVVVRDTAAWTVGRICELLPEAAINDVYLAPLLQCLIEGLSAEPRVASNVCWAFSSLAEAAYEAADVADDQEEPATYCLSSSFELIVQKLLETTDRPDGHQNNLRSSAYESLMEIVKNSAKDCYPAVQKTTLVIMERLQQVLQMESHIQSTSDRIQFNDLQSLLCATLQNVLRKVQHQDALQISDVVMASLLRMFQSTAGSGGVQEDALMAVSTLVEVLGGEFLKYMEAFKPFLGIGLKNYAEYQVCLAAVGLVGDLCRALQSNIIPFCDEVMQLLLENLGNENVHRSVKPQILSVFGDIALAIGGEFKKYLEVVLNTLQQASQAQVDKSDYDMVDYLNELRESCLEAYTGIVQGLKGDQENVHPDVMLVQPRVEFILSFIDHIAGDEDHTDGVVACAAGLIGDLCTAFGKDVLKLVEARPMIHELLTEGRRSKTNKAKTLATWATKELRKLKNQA
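FRET biosensor Rango (snurportin 1 IBB between N-terminal EYFP and C-terminal Cerulean), 50 nM in PBS/1 mM DTT/0.02% Tween-20/0.1% BSA, preincubated 5 min RT with compound; 0.125 microM importin beta added, 45 min RT, CFP/YFP FRET ratio read.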
miR-21 FLuc = qHTS Assay for Modulators of miRNAs and/orActivators of miR-21. 340,000 tested, under 10 active. AID 2288, 2010. HeLa miR-21 FLuc reporter, luciferase, 48 h. Potency, µM (top dose mostly 38.3 µM), inactives show at the highest dose reporter change, positive = more light; active = well fitted rising curve with a large enough effect; inconclusive = small, poorly fitted or top-dose-only effect; inactive = no such curve, though single readings can be large or run the other way;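 note: % of control where 0% means no effect; miR-21 action dims this reporter so a rising signal means less miR-21 action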
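HeLa cells stably expressing CMV-driven firefly luciferase with a downstream miR-21 binding sequence, endogenously expressing miR-21, were treated with titrations (up to about 40uM final) for 48 hours at 37 degree Celsius. Luciferase luminescence was read after lysis.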
Rango dissoc inh = qHTS Assay for Inhibitors of RanGTP induced Rango (Ran-regulated importin-beta cargo) - Importin beta complex dissociation; Snurportin-1 (Homo sapiens) + GTP-binding nuclear protein Ran (Homo sapiens) + Importin …; Biochemical FRET Rango-importin beta, RanGTP-induced dissociation; Potency, µM (titrated, usually from 46.1 µM), without a hit: at the highest dose activity change, negative = inhibition; 340,000 compounds, 0.071% hits; AID 540253, 2011; active means falling FRET ratio curve, often poorly fitted, with flat reads before Ran was added; inconclusive means other falling curves, or compound fluorescence or quenching; inactive means flat or rising ratio curve;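 note: potency is the fitted concentration of half-maximal effect; % of control where 0% means no effect; nearly all actives have a fitted effect of over 45% in size; -100% = wells without RanGTP and RCC1; the record marks most hits as doubtful in a second field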
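Compounds preincubate 5 min with complex of recombinant Rango and importin beta in PBS with 1 mM DTT. Ran (0.6 uM) loaded with 2 mM GTP plus 0.2 uM RCC1 starts dissociation; FRET is recorded 45 min later.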
The depositor's hits bear a star; [ ] = remark or other dose. A portion of the library (hit frequency here may not be typical).

`COc1ccc(C2=NOC(C(=O)Nc3cc(C)nn3-c3ccccc3)C2)cc1OC` (configuration not stated) gave GLA inh pH 4.5 -4.8, Rango complex inh -2.0%, miR-21 FLuc -25.4% and Rango dissoc inh -2.8%.
For O=C1CC(SCc2nc3ccccc3[nH]2)C(=O)N1c1ccc(Cl)cc1 (configuration not stated) the results were GLA inh pH 4.5 -8.7, Rango complex inh inconclusive, miR-21 FLuc -4.9% and Rango dissoc inh -20.0%.
COc1ccc(Cc2nnc(SCC(=O)NC3(C#N)CCCCC3)n2N)cc1 was read as Rango complex inh 1.6% and Rango dissoc inh -2.0%.
For COc1ccc(C(C)NC(=O)c2ccncc2)cc1OC (configuration not stated) the results were Rango complex inh -0.1%, miR-21 FLuc 0.9% and Rango dissoc inh 0.3%.
S=c1[nH]nc(-c2ccccc2)n1/N=C/c1ccc(-c2ccccc2Cl)o1 was read as GLA inh pH 4.5 -11.2, Rango complex inh inconclusive, miR-21 FLuc inconclusive and Rango dissoc inh -1.7%.
For COc1ccc(-c2ocnc2C(=O)N2CCN(C(=O)C(c3ccccc3)c3ccccc3)CC2)cc1 the results were Rango complex inh -0.9%, miR-21 FLuc 6.3% and Rango dissoc inh 18.5%.
Screening Cc1sc2ncn(CC(=O)OC(C)C)c(=O)c2c1C returned GLA inh pH 4.5 3.9 and miR-21 FLuc -12.4%.
`O=C(O)CCNc1ccc2c(c1)OCCO2` gave GLA inh pH 4.5 -1.6, Rango complex inh inconclusive, miR-21 FLuc -19.8% and Rango dissoc inh -29.0%.
For O=C(C[n+]1ccccc1)N/N=C/c1cccs1 the results were GLA inh pH 4.5 -21.9, Rango complex inh 0.0%, miR-21 FLuc -0.1% and Rango dissoc inh 6.2%.
COCCCNC(=O)[C@H]1N2C(=O)c3ccccc3C2SC1(C)C (some centres not stated) was read as Rango complex inh -2.9%, miR-21 FLuc -1.3% and Rango dissoc inh 11.7%.
Screening Cc1cc(NC(=O)COc2cccc(Oc3ccccc3)c2)no1 returned GLA inh pH 4.5 1.1, Rango complex inh 0.2%, miR-21 FLuc 9.2% and Rango dissoc inh -10.8%.
For O=C(CSc1nc2ccccc2c(=O)n1Cc1ccco1)N1CCCCCC1 the results were GLA inh pH 4.5 -7.3, Rango complex inh -2.1%, miR-21 FLuc 14.0% and Rango dissoc inh 0.9%.
`O=C(NCc1ccccc1)NC(=O)c1ccccc1F` gave Rango complex inh 0.5%, miR-21 FLuc -32.3% and Rango dissoc inh -5.2%.
Screening CC(NC(=O)CCCC1CCCCC1)c1ccc(S(N)(=O)=O)cc1 (configuration not stated) returned Rango complex inh inconclusive, miR-21 FLuc -1.6% and Rango dissoc inh 2.5%.
CCOC(=O)N1CCC(N2C(=O)c3ccccc3C2Nc2cc(C)cc(C)c2)CC1 (configuration not stated) was read as GLA inh pH 4.5 -11.5, Rango complex inh 1.6%, miR-21 FLuc 5.0% and Rango dissoc inh 0.2%.
For CN1C(=O)/C(=C/c2ccc(OCc3ccc(C(=O)O)cc3)c(Cl)c2)NC1=S the results were Rango complex inh inconclusive, miR-21 FLuc -0.2% and Rango dissoc inh inconclusive.
Screening CC(NC(=O)NC1CCCCC1)c1ccccc1 (configuration not stated) returned GLA inh pH 4.5 -18.4, Rango complex inh -1.8%, miR-21 FLuc -10.8% and Rango dissoc inh -4.9%.
Screening COc1ccc(Br)c(C(=O)Nc2cccc(Cl)c2Cl)c1 returned GLA inh pH 4.5 -7.2, Rango complex inh -3.2%, miR-21 FLuc -31.0% and Rango dissoc inh -4.7%.
Screening CC(=O)c1nc(-c2ccccc2)sc1C returned GLA inh pH 4.5 5.7, Rango complex inh -1.2%, miR-21 FLuc -27.6% and Rango dissoc inh 14.6%.
`Cc1ccc(C)c(NC(=O)COC(=O)CNC(=O)C2CCCCC2)c1` gave Rango complex inh 3.7% and Rango dissoc inh -10.1%.
`COc1ccccc1CN(C)CC(=O)NC1CCCc2ccccc21` (configuration not stated) gave GLA inh pH 4.5 -1.7, Rango complex inh -0.1%, miR-21 FLuc 1.2% and Rango dissoc inh inconclusive.
Screening CCOC(=O)N1CCN(c2c(NCc3ccccc3OC)c(=O)c2=O)CC1 returned GLA inh pH 4.5 1.0, Rango complex inh -3.0%, miR-21 FLuc 0.9% and Rango dissoc inh 0.3%.
For Cc1cc(Br)ccc1NC(=O)CNC(=O)CN1C(=O)NC2(CCCCCC2)C1=O the results were GLA inh pH 4.5 3.0, Rango complex inh 0.8%, miR-21 FLuc -5.2% and Rango dissoc inh -4.4%.
For O=C(C1CCN(S(=O)(=O)c2cccc3nonc23)CC1)N1CCCCC1 the results were Rango complex inh 0.2%, miR-21 FLuc -0.4% and Rango dissoc inh 0.2%.
Screening N=c1c(C(=O)NCc2ccc(F)cc2)cc2c(=O)n3ccccc3nc2n1CC1CCCO1 (configuration not stated) returned GLA inh pH 4.5 12.5, Rango complex inh inconclusive, miR-21 FLuc -1.8% and Rango dissoc inh inconclusive.
For O=C(CN1C(=O)c2ccccc2C1=O)Nc1ccccc1 the results were Rango complex inh -0.1%, miR-21 FLuc 0.2% and Rango dissoc inh -9.0%.
CNC(C)C#Cc1ccc2c(=O)c3cc(C)c(C)cc3oc2c1 (configuration not stated) was read as Rango complex inh 0.8% and Rango dissoc inh -10.8%.
O=C1NCCCC1C(=O)N1CCN(C(=O)c2ccco2)CC1 (configuration not stated) was read as GLA inh pH 4.5 -24.2, Rango complex inh 0.1%, miR-21 FLuc -3.5% and Rango dissoc inh -8.0%.
`COc1ccc2[nH]c(CN3CCN(CC(C)C)C(CCO)C3)c(C)c2c1` (configuration not stated) gave Rango complex inh -1.1%, miR-21 FLuc -7.2% and Rango dissoc inh -13.9%.
For C/C(=N\NC(=S)Nc1ccc(C)c(C)c1)c1ccc(N2CCOCC2)cc1 the results were GLA inh pH 4.5 19.6, Rango complex inh inconclusive, miR-21 FLuc -20.8% and Rango dissoc inh -8.2%.

The list goes on, overlapping the part above by two compounds.
`COc1ccc2[nH]c(CN3CCN(CC(C)C)C(CCO)C3)c(C)c2c1` (configuration not stated) gave Rango complex inh -1.1%, miR-21 FLuc -7.2% and Rango dissoc inh -13.9%.
For C/C(=N\NC(=S)Nc1ccc(C)c(C)c1)c1ccc(N2CCOCC2)cc1 the results were GLA inh pH 4.5 19.6, Rango complex inh inconclusive, miR-21 FLuc -20.8% and Rango dissoc inh -8.2%.
For C/C(=N/NC(=O)CCc1c(C)n[nH]c1C)c1cccc([N+](=O)[O-])c1 the results were GLA inh pH 4.5 4.9, Rango complex inh -1.3%, miR-21 FLuc -0.8% and Rango dissoc inh 2.0%.
For CC(C)CC(=O)/C=C/n1c(=S)oc2ccccc21 the results were GLA inh pH 4.5 3.9, Rango complex inh -0.4%, miR-21 FLuc -1.1% and Rango dissoc inh -4.5%.
Cc1ccc(NC(=O)CN2C(=O)N/C(=C/c3ccccc3OCc3cccc(C(=O)O)c3)C2=O)cc1 was read as Rango complex inh inconclusive, miR-21 FLuc -37.1% and Rango dissoc inh 8.1%.
Screening CN(C)CCOC1c2ccccc2-c2ccccc21 returned Rango complex inh 3.1%, miR-21 FLuc -9.5% and Rango dissoc inh 8.4%.
For COc1ccc(C(C)=O)cc1CN1C(=O)NC2(CCCC2)C1=O the results were GLA inh pH 4.5 1.7, Rango complex inh -2.9%, miR-21 FLuc 4.0% and Rango dissoc inh -5.4%.
For O=C(O)CNC(=O)/C=C/c1ccc(Cl)cc1Cl the results were GLA inh pH 4.5 -10.5, Rango complex inh -1.1%, miR-21 FLuc -2.9% and Rango dissoc inh -10.4%.
`O=C(c1ccco1)N1CCN(C(=S)Nc2ccccc2Cl)CC1` gave Rango complex inh 2.5%, miR-21 FLuc 11.3% and Rango dissoc inh 0.0%.
Screening O=C(NCCc1ccc(Cl)cc1)C1CCN(S(=O)(=O)c2ccc(-n3cnnn3)cc2)CC1 returned GLA inh pH 4.5 -1.2, Rango complex inh -1.1%, miR-21 FLuc 10.8% and Rango dissoc inh 18.3%.
`O=C(N/N=C/C1CC2C=CC1C2)c1ccccc1O` (configuration not stated) gave GLA inh pH 4.5 -0.4, Rango complex inh -1.8%, miR-21 FLuc -14.7% and Rango dissoc inh -2.8%.
Screening Cc1cc(-n2cnnn2)ccc1C(C)C returned GLA inh pH 4.5 -4.1, Rango complex inh -0.4%, miR-21 FLuc -33.6% and Rango dissoc inh 1.7%.
`COc1ccc(C2=NOC(C(=O)Nc3cccnc3)C2)cc1OC` (configuration not stated) gave GLA inh pH 4.5 4.1, Rango complex inh 1.0%, miR-21 FLuc -1.4% and Rango dissoc inh 9.6%.
Screening O=C(CN1C(=O)c2ccccc2S1(=O)=O)NC(Nc1ccccc1F)C(Cl)(Cl)Cl (configuration not stated) returned GLA inh pH 4.5 -12.1[21.1 µM], Rango complex inh -1.0%, miR-21 FLuc 0.2% and Rango dissoc inh -3.1%.
For Cc1ccc(S(=O)(=O)NC(=O)c2cccc(N(C)C)c2)cc1 the results were Rango complex inh 0.1% and Rango dissoc inh 0.0%.
O=C(O)CC12CC3CC(C1)CC(n1ncc(NCc4ccccc4Cl)c(Cl)c1=O)(C3)C2 was read as GLA inh pH 4.5 -8.6, Rango complex inh -5.6%, miR-21 FLuc -6.1% and Rango dissoc inh 8.6%.
`CN(CCNC(=O)C1CC(=O)N(c2ccc(F)c(Cl)c2)C1)Cc1ccccc1` (configuration not stated) gave GLA inh pH 4.5 7.7, Rango complex inh -4.1%, miR-21 FLuc -2.8% and Rango dissoc inh 1.5%.
For Cc1cccc(NC(=O)CSc2ncnc3sc(C)cc23)c1 the results were Rango complex inh 1.3%, miR-21 FLuc -0.2% and Rango dissoc inh -16.6%.
Screening O=C1OCCN1C(=O)[C@H]1[C@H](c2ccc(Cl)cc2)C(c2ccc(F)cc2)=NN1c1ccccc1 returned GLA inh pH 4.5 -3.0, Rango complex inh inconclusive and Rango dissoc inh -7.8%.
`CCCn1c(N)c(C(=O)COC(=O)c2c(C)noc2C)c(=O)n(C)c1=O` gave GLA inh pH 4.5 -7.3, Rango complex inh 1.0%, miR-21 FLuc 3.2% and Rango dissoc inh -20.6%.
C[C@H](CO)N1C[C@H](C)[C@@H](CN(C)C(=O)Nc2ccccc2)Oc2c(NS(=O)(=O)c3cn(C)cn3)cccc2C1=O was read as Rango complex inh 2.1% and Rango dissoc inh 0.3%.
`CC(=O)c1cccc(NS(=O)(=O)c2c(C(=O)N3CCOCC3)c(C)n(C)c2C)c1` gave Rango complex inh -0.1%, miR-21 FLuc 0.6% and Rango dissoc inh 0.2%.
CCOc1ccc(NC(=O)N(CCN(C)C)C(C)c2cccnc2)cc1 (configuration not stated) was read as GLA inh pH 4.5 -0.4, Rango complex inh 1.3%, miR-21 FLuc -4.4% and Rango dissoc inh -6.7%.
For CC(C)c1ccc(NC(=O)C(c2ccccc2)N2CCN(C(=O)c3ccco3)CC2)cc1 (configuration not stated) the results were GLA inh pH 4.5 2.4, Rango complex inh -0.3%, miR-21 FLuc -5.5% and Rango dissoc inh -3.1%.
CCOC(=O)C1=C(C)N=c2s/c(=C\c3ccc(OC(C)=O)c(OCC)c3)c(=O)n2C1/C=C/c1ccccc1 (configuration not stated) was read as GLA inh pH 4.5 -1.1, Rango complex inh -1.4%, miR-21 FLuc -6.7% and Rango dissoc inh -6.0%.
c1ccc(Oc2cc(-n3cccn3)ncn2)cc1 was read as GLA inh pH 4.5 -2.6, Rango complex inh 0.4%, miR-21 FLuc -49.9% and Rango dissoc inh 5.9%.
`COC(=O)C1=C(C)OC(N)=C(C#N)C1c1ccccc1` (configuration not stated) gave GLA inh pH 4.5 -6.7, Rango complex inh inconclusive, miR-21 FLuc 1.2% and Rango dissoc inh inconclusive.
